# eIF4H FP inh: inhibitors of RNA binding by human eIF4H; Q15056; eIF4H fluorescence polarization binding assay; inhibition, % at 35 µM; hit rate 0.94% among 290,000; AID 2012;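 active = 50% or more with normal probe brightness, or confirmed in later tests; about a fifth of its hits are not listed in these tables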;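 note: calls also rest on retests at 20 µM and on dose response follow-up; 0% = protein and probe with vehicle and 100% = probe without protein; strong numbers were not always called active; many hits fall short of the cut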
# MT1-MMP act inh: inhibitors of human MT1-MMP activation; P50281; HT1080 RFP-PRO-GFP cells, GFP/RFP ratio fluorescence, overnight; percent of plate control window, DMSO zero; GFP/RFP ratio change, % at 20 µM; hit rate 0.061% among 360,000;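 active = GFP/RFP ratio change of at least 30% with cell ATP level not reduced by more than half and red fluorescence within 50% of control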; note: strong numbers were not always called active
#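 Material – HT1080 RFP-PRO-GFP cells · Control set – DMSO wells and RFP-L50D-GFP cells · Incubation – overnight cell settling, then overnight compound exposure, 37 °C, 5% CO2 · Compound dosing – single-point 20 µM compound, 1% DMSO · Read-out – GFP/RFP fluorescence ratio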
# HIV Env fusion: blocks HIV Env-driven cell-cell fusion; HeLa-JRFL Env/CEM21 cell fusion, luciferase; inhibition, % at 12.3 µM; hit rate 1.1% among 360,000; AID 651610;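 active = mean replicate inhibition score of at least 50 and every replicate individually at or above 50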;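 note: 0% = plate neutral controls and 100% = maraviroc near 300 nM; one replicate is shown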
# Yeast UUG start: alters start codon recognition fidelity in yeast. S. cerevisiae UUG-firefly luciferase reporter, luminescence/redox ratio. activity score, % at 18.7 µM. hit rate 0.13% among 350,000. AID 602363;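 active = replicate mean at a twofold rise or more, about +100% in these data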;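 note: firefly luciferase made from a UUG start codon reports start codon fidelity; reporter light over untreated wells divided by growth signal over untreated wells; some hits fall short of that in this replicate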
# Rce1 inhib: inhibitors of yeast Ras-converting enzyme | Q03530 | yeast membranes, quenched prenylated peptide cleavage fluorescence | calls only | hit rate 0.27% among 290,000 | AID 2563;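 active = fall in fluorescence gain of 50% or more versus controls, with final raw signal at or below 3038400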;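 note: plate controls were neutral control wells for no effect and wells lacking membranes for full effect; tested at 10 µM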
# Target sequence (Q03530 whole entry, looked up): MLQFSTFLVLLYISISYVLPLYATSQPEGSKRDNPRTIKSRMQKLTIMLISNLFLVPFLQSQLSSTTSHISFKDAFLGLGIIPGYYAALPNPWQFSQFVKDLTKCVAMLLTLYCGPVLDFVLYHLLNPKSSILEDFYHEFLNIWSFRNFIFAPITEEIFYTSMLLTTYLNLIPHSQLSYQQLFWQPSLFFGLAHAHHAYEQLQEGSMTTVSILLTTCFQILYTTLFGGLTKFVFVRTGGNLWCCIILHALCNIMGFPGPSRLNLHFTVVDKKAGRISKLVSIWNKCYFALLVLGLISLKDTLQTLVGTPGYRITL
# CSC inhib: blocks cancer stem cells. inhibition, % at 7.5 µM. AID 2717. cancer stem cell-like cells viability, luminescence. hit rate 1.1% among 300,000;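 active = mean at 75% or more and at least half the replicates too; tested in HMLE shEcad cells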;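 note: 0% = median of negative and 100% = median of positive control wells; the first replicate is given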
# PABP FP inh: PABP-poly(A) binding inhibition; P11940; PABP-poly(A) RNA binding, fluorescence polarization; inhibition, % at 35 µM; hit rate 1% among 290,000;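 active = 50% or more with normal probe brightness, or confirmed in later tests; about a fifth of its hits are not listed in these tables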;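 note: calls also rest on retests at 20 µM and on dose response follow-up; controls were probe without protein and protein plus probe with vehicle; some compounds called inactive have numbers as strong as hits; many hits fall short of the cut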
# eIF4H FP inh retest: also measured in eIF4H FP inh; calls as there; inhibition, %; compound at 20 µM; confirmation average;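 mean of two retest wells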
# PABP FP inh retest: recorded beside PABP FP inh, whose call it bears; inhibition, %; compound at 20 µM; confirmation repeats;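 mean of two retest wells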
# MT1-MMP act inh RFP: second read-out of MT1-MMP act inh, no call of its own (marks repeat the call); RFP signal change, %; measured here: RFP expression control read;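 0 = vehicle wells; hits needed this value within 50% of zero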
# An asterisk follows results filed as active; i = inactive; . = no result given; & = joins results of further samples.
SMILES,eIF4H FP inh,MT1-MMP act inh,MT1-MMP act inh RFP,HIV Env fusion,Yeast UUG start,Rce1 inhib,CSC inhib,PABP FP inh,others
COc1ccc(-c2sc3cc(OC)ccc3c2-c2ccc(OCCN3CCOCC3)cc2)cc1,.,-4,-5,28,-14,.,.,.,
COc1ccc(NC(C)=O)cc1S(=O)(=O)NC(C)c1ccc(-n2ccnc2)cc1 (configuration not stated),.,-6,-2,.,-19,.,-1,.,
O=C(CN1CCCC1)N1c2ccccc2Sc2ccccc21,3,2,9,.,-7,i,-13,-15,
CCOc1ccc(N=C(C)c2ccccc2O)cc1,-1,1,-2,.,-4,i,1,4,
Cc1sc(N)nc1-c1c(C)n(C)c2ccccc12,-1,2,4,15,-35,i,-7,10,
O=C(COC(=O)c1ccccc1N1C(=O)C2C3CCC(C3)C2C1=O)c1ccccc1 (configuration not stated),-8,-4,-4,5,.,i,-5,-3,
COc1ccc2sc(N(CCCN(C)C)C(=O)c3ccc(C(=O)c4ccccc4)cc3)nc2c1,.,-1,-7,.,-2,i,18,.,
CCCc1cc(=O)oc2cc(C)cc(OCc3nn[nH]n3)c12,-1,5,0,.,-25,i,-5,3,
COc1ccc(S(=O)(=O)NC2CCCCC2)cc1F,-13,-1,-2,-6,11,i,.,-18,
Cc1cc(C)c(NS(=O)(=O)c2c(C(=O)N3CCOCC3)c(C)n(C)c2C)c(C)c1,-2,1,4,33,10,i,3,-1,
COc1ccc(CCN2CC34C=CC(O3)C(C(=O)NCc3ccccc3Cl)C4C2=O)cc1OC (configuration not stated),5,9,-2,39,0,i,-4,-5,
CC1CCN(C(=O)C(C)Sc2nc(-c3ccccc3)cc(C(F)(F)F)n2)CC1 (configuration not stated),2,-18,-13,.,.,i,8,-1,
CCOc1ccc(NC(=O)C(c2ccccn2)N(C(=O)CCl)c2ccc(OC)cc2)cc1 (configuration not stated),17,-1,10,2,.,i,4,10,
CN(C)S(=O)(=O)c1ccc(NC(=O)CSc2nnc(-c3ccco3)o2)cc1,.,-4,0,.,-35,.,1,.,
CN(C)CCCN(C(=O)c1ccc(S(=O)(=O)N(C)Cc2ccccc2)cc1)c1nc2c(F)cccc2s1,-2,3,4,0,24,i,-13,3,

# Retrieved one by one from the entries so far, two records:
SMILES,eIF4H FP inh,MT1-MMP act inh,MT1-MMP act inh RFP,HIV Env fusion,Yeast UUG start,Rce1 inhib,CSC inhib,PABP FP inh,others
CC1CCN(C(=O)C(C)Sc2nc(-c3ccccc3)cc(C(F)(F)F)n2)CC1 (configuration not stated),2,-18,-13,.,.,i,8,-1,
CCOc1ccc(N=C(C)c2ccccc2O)cc1,-1,1,-2,.,-4,i,1,4,

# Back to the main list; the 2 compounds before the break are reprinted first.
SMILES,eIF4H FP inh,MT1-MMP act inh,MT1-MMP act inh RFP,HIV Env fusion,Yeast UUG start,Rce1 inhib,CSC inhib,PABP FP inh,others
CN(C)S(=O)(=O)c1ccc(NC(=O)CSc2nnc(-c3ccco3)o2)cc1,.,-4,0,.,-35,.,1,.,
CN(C)CCCN(C(=O)c1ccc(S(=O)(=O)N(C)Cc2ccccc2)cc1)c1nc2c(F)cccc2s1,-2,3,4,0,24,i,-13,3,
COc1ccccc1-n1c(SCC(=O)N(C)C)nnc1-c1ccco1,.,0,-1,-2,-19,.,.,.,
Cc1ccc(OCCC(=O)Nc2c(C)n(C)n(-c3ccccc3)c2=O)cc1,11,-4,2,.,-17,.,23,0,
S=c1[nH]nc(-c2cc(-c3ccccc3)n[nH]2)n1/N=C/c1ccc(Br)s1,59,2,-5,-14,.,i,53,-5,eIF4H FP inh retest=18;PABP FP inh retest=-7
Cc1ccc(C(O)c2ncc(-c3ccc(F)cc3)[nH]2)c(C)c1 (configuration not stated),.,7,-3,-20,-7,.,.,.,
O=c1c2ccccc2ncn1Cc1ccco1,7,-2,4,.,-20,i,-5,20,
Cc1c(C)c2ccc(OCC(=O)Nc3ccc(CN4CCOCC4)cc3)cc2oc1=O,-8,2,-1,-16,-39,i,14,-3,
COc1ccc(OC)c(CN2CCN(C(=O)c3cccc(S(=O)(=O)Nc4ccc(F)cc4)c3)CC2)c1,.,2,-7,10,1,.,.,.,
COc1cccc(-c2sc3ccccc3c2-c2ccc(OCCN3CCCC3)cc2)c1,.,-5,-1,-19,-6,.,104*,.,
Cc1ccnc2nc(C(=O)Nc3ccc(S(=O)(=O)N4CCCC4)cc3)nn12,-3,1,2,-10,-14,.,-12,-5,
CC(C)N(CCO)C(=O)CCc1nnc(CCCc2ccccc2)o1,0,5,5,-6,.,.,0,-4,
CC(C)C(NC(=O)C1CCCCC1)C(=O)Nc1ccc2c(c1)OCCO2 (configuration not stated),-9,0,-1,-65,-44,i,-1,-6,
CC1=C(C(=O)OCc2ccccc2)C(c2cccnc2)n2ncnc2N1 (configuration not stated),-7,0,3,.,.,i,-14,-4,
CCOC(=O)N1CCN(S(=O)(=O)c2c(C)nc3scc(C)n3c2=O)CC1,14,-1,0,4,8,i,-14,6,
Cn1c(=O)c2c(nc(SCC(=O)Nc3ccccc3N3CCCCC3)n2C)n(C)c1=O,1,-1,-5,.,-3,i,11,0,
COc1cc(OC)cc(-c2c(C#Cc3ccsc3)c3cc(-c4ccc(SC)cc4)ccc3n2C)c1,.,-4,7,17,-10,.,.,.,
COc1ccc(CCNC(=O)C(=O)NCC2OCCN2S(=O)(=O)c2ccc(Br)cc2)cc1 (configuration not stated),3,4,6,1,8,i,1,11,
Cc1ccc(S(=O)(=O)NCC(=O)OCC(=O)NCc2cccs2)cc1,.,0,3,.,-8,i,-7,.,
O=S(=O)(c1ccc(Cl)cc1Br)N1CCCCC1,-14,2,1,38,4,i,12,-10,
Cc1ccc(N2C(=O)C3ON(c4ccccc4)C(c4ccncc4)C3C2=O)cc1 (configuration not stated),-9,4,8,-35,-11,i,5,4,
CC1CCN(CC(=O)c2c[nH]c3ccccc23)CC1,11,3,10,-72,4,i,-7,1,
Cn1cc(CN(CCO)Cc2cccs2)c(-c2cccc(Cl)c2)n1,-3,-4,-10,3,1,i,2,2,
CC(C#N)Sc1ccc(S(=O)(=O)N2CCCC2)cn1 (configuration not stated),.,-2,-3,5,-6,.,.,.,
COC(=O)c1cc(Br)c(=O)n(Cc2ccco2)c1,-1,0,4,.,4,i,-9,4,
C=CCSc1nc(N)c(C(=O)Nc2ccccc2OC)cc1C(=O)Nc1ccccc1,-3,3,-2,-393,-9,i,49,6,
Cc1ccc(Cl)cc1NC(=O)NCc1ccccn1,4,4,5,-1,-6,i,-10,0,
Cc1ccc(NC(=O)c2nnn(CC(=O)Nc3ccc4c(c3)OCO4)c2N)cc1C,1,1,3,-4,-11,i,-6,1,
CN(C)CCN(Cc1cccs1)c1ccccn1,-4,3,5,2,-18,i,-12,-2,
CCOc1cc(/C=N/n2c(C)nc3sc(C)c(C)c3c2=O)ccc1O,-5,7,-3,7,.,i,-3,-13,
CCOc1ccc(CCNC(=O)COC(=O)/C=C/c2ccco2)cc1OCC,5,-5,3,-29,7,i,-13,10,
CCc1ccc(OCCCC(=O)NCc2ccco2)cc1,4,0,0,6,.,i,1,2,

# 4 structures from above, sorted by count of non-hydrogen atoms, falling.
SMILES,eIF4H FP inh,MT1-MMP act inh,MT1-MMP act inh RFP,HIV Env fusion,Yeast UUG start,Rce1 inhib,CSC inhib,PABP FP inh,others
COc1ccc(CCNC(=O)C(=O)NCC2OCCN2S(=O)(=O)c2ccc(Br)cc2)cc1 (configuration not stated),3,4,6,1,8,i,1,11,
C=CCSc1nc(N)c(C(=O)Nc2ccccc2OC)cc1C(=O)Nc1ccccc1,-3,3,-2,-393,-9,i,49,6,
Cc1ccc(NC(=O)c2nnn(CC(=O)Nc3ccc4c(c3)OCO4)c2N)cc1C,1,1,3,-4,-11,i,-6,1,
CC1CCN(CC(=O)c2c[nH]c3ccccc23)CC1,11,3,10,-72,4,i,-7,1,

# Next section
SMILES,eIF4H FP inh,MT1-MMP act inh,MT1-MMP act inh RFP,HIV Env fusion,Yeast UUG start,Rce1 inhib,CSC inhib,PABP FP inh,others
O=C(NC1(O)C(=O)c2ccccc2C1=O)c1c(Cl)cccc1Cl,-4,6,8,11,-6,i,6,-11,
CNC(=O)c1ccsc1NC(=O)C1CCCN1S(=O)(=O)c1cccs1 (configuration not stated),.,3,-1,6,-3,i,-13,.,
COCc1cc(C)nc(SCC[N+](C)(C)CC(=O)Nc2cccc(C(F)(F)F)c2)c1C#N,-4,-3,2,-5,-5,i,-9,-5,
O=C(Oc1ccc(Br)cc1)c1n[nH]c(=O)c2ccccc12,0,4,6,22,.,i,8,-10,
Nc1ccc(S(=O)(=O)Nc2cnc3ccccc3n2)cc1,-10,1&-12,3&2,9&19,-1,i,-3&12,-1,
CCC(C)(C)NC(=O)C(c1ccccc1F)N(Cc1ccco1)C(=O)Cn1nnc2ccccc21 (configuration not stated),-5,1,1,.,-3,i,-6,-1,
Cc1ccc(C(=O)OCN2C(=O)c3ccccc3C2=O)cc1S(=O)(=O)N1CCOCC1,.,-2,4,-3,-23,i,-10,.,
O=C(/C=C/c1ccc([N+](=O)[O-])cc1)/C=C/c1ccco1,61*,-6,5,-4,-24,i,76*,50*,eIF4H FP inh retest=90*;PABP FP inh retest=88*
COc1ccccc1-n1c2c(cc(C(=O)N3CCC(C)CC3)c1=O)C(=O)CC(C)(C)C2,2,1,0,16,-13,i,-11,12,
COc1ccc(C(=O)Nc2nnc(S(=O)(=O)Cc3ccc(F)cc3)s2)cc1,-4,-2,-2,1,-14,i,4,-1,
CCC(C)[C@H](NC(=O)N1CC(=O)Nc2ccccc21)C(=O)N[C@H](C(=O)O)c1ccccc1 (some centres not stated),.,-2,1,-11,-4,i,-7,.,
CCn1c(=O)c(C(C)=O)c(O)c2ccccc21,-11,3,0,-3,-15,i,-1,-7,
Cc1ccc(S(=O)(=O)c2nnn3c2nc(Nc2cccc(C)c2)c2ccccc23)cc1,-6,1,-1,2,5,i,20,4,
Cc1ccc(S(=O)(=O)NCc2ccncc2)cc1C(=O)NCC(C)C,-3,-1,-10,4,3,i,-17,-11,
Cc1ccc(-n2nc3ccc(N)cc3n2)cc1C,8,1,8,-65,9,i,18,8,
CNC(=S)NCCN1CCOCC1,-6,0,7,0,.,i,-9,76,eIF4H FP inh retest=-8;PABP FP inh retest=15
CCCCN(C(=O)c1ccccc1Br)C1CCS(=O)(=O)C1 (configuration not stated),.,0,2,-9,17,i,-5,.,
COc1ccc(N(CC(=O)Nc2cccnc2)S(C)(=O)=O)cc1,5,-1,-1,7,.,i,-10,7,
NC(=O)C1CCN(C(=O)C2CC(=O)N(c3ccc(F)cc3)C2)CC1 (configuration not stated),-2,-1,2,-3,-4,i,-29,-2,
CN(CC(=O)Nc1ccccc1Cl)C(=O)COC(=O)CNC(=O)c1ccc(Br)o1,.,0,2,-16,-14,i,.,.,
O=c1ccc(-c2ccccc2)nn1Cc1ccc(F)cc1,-5,-5,-5,-6,-6,i,-3,0,
CCN1CCN(C(=S)NCCOC)CC1,10,0,6,-1,.,i,7,3,
CC(NC(=O)C1CCN(C(=O)c2ccc(F)cc2)CC1)c1ccc(S(N)(=O)=O)cc1 (configuration not stated),.,-5,-1,4,-25,.,-13,.,

# High-throughput results as filed in PubChem BioAssay.
